Screening results from PubChem.
HPGD block = qHTS Assay for Inhibitors of HPGD (15-Hydroxyprostaglandin Dehydrogenase) | Potency, µM, for the others: at the top dose activity change, negative = inhibition, hits mostly inhibitors | hit rate 4.3% among 150,000 | AID 894, 2007 | purified HPGD, NADH fluorescence kinetic, PGE2 substrate | 15-hydroxyprostaglandin dehydrogenase [NAD(+)] (Homo sapiens), P15428; active = well fitted inhibition curve with a large enough effect (not every such curve was filed as active); inconclusive = small, poorly fitted or top-dose-only effect, or another doubt; inactive = no such curve, though single readings can be large or run the other way;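 also: top concentration of the series not given in the record; plate controls included wells without enzyme; inactives centre near -10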
Target sequence (P15428 whole entry, looked up): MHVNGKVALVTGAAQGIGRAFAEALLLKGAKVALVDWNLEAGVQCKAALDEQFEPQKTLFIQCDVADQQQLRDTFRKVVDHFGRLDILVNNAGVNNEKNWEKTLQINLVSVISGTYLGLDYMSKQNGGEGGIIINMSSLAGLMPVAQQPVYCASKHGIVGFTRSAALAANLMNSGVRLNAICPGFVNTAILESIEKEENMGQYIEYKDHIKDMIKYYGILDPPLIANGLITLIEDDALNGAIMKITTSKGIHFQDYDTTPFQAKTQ
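20 nM HPGD preincubated 15 min at room temperature with compound in 50 mM Tris-HCl pH 8, 0.01% Tween 20. Started with 1 mM NAD+ and 30 uM prostaglandin E2; NADH fluorescence (360/450 nm) read 5 times over 30-s intervals, last minus first.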
An asterisk follows results filed as active; ? = inconclusive. % is scaled to controls: 0 for no effect and ±100 for the full control effect; potency is read from the fitted curve at half-maximal effect. The list is partial (hit frequency here may not be typical).

HPGD block	compound
-6%	Cc1cc(=O)oc(C)c1C(=O)NC12CC3CC(CC(C3)C1)C2
-8%	COc1ccc(-n2c(=O)c(-c3ccc(Cl)cc3)nc3cncnc32)cc1
-6%	CCOC(=O)N1CCN(S(=O)(=O)c2cc(Br)cc3c2N(C(=O)CC)CC3)CC1
?	CC(=O)c1c(C)[nH]c(C(=O)COC(=O)CN(C)S(=O)(=O)c2ccc(Cl)cc2)c1C
-6%	COc1ccc(CCNC(=O)c2cc(C(C)C)on2)cc1OC
-14%	Cc1ccc(/C=N/NC(=O)c2cccc([N+](=O)[O-])c2)o1
-7%	COc1ccc(NC(=O)NCc2ccncc2)cc1
-4%	CN1CCN(CCCNC(=O)c2cc3c(=O)oc4ccccc4c3s2)CC1
-6%	Brc1ccccc1OCCCCCN1CCCC1
-3%	Cc1nn(Cc2ccc([N+](=O)[O-])cc2)c(=O)n1-c1ccc(F)cc1
-8%	COc1ccccc1NC(=O)C(=O)N/N=C/c1cccs1
?	CC(C)CCNC(=O)CSc1nnc(-c2ccc(S(=O)(=O)N3CCCC3)cc2)n1C
2%	O=C(NCc1ccc2c(c1)OCO2)c1cccc(S(=O)(=O)N2CCOCC2)c1
-15%	COC(=O)c1ccc(N2CCN(C)CC2)c(NC(=O)COc2ccc(OC)cc2)c1
-6%	O=C1CC(=O)CC(c2ccccc2Cl)C1
-18%	CCCc1nc2ccc(NC(=O)NCCC(=O)OCC)cc2c(=O)n1Cc1cccc(Cl)c1
-9%	CSc1nc2ccc(N3C(=O)C4CCCCC4C3=O)cc2s1 (stereo not given)
?	COc1ccccc1/C=C\C=N\NC(=O)CCn1nnc2ccccc21
-8%	c1cc2c3c(c1)ccc1cccc(c13)C2
1%	CCc1cccc2c(C=C(C#N)C#N)cn(CC(=O)N3CCCCCC3)c12
?	Cc1cccc2nc(Cn3c(=O)n(CCC(=O)NCc4ccco4)c(=O)c4sccc43)cc(=O)n12
-9%	Cc1ccc(S(=O)(=O)/N=C(\CN2CCOCC2)N2CCOCC2)cc1
-8%	Cn1c(CN2CCCC2)nc2cc(NC(=O)Nc3ccccc3)ccc21
-16%	O=C(NCc1ccco1)c1cnc2ccccn2c1=O
-19%	COC(=O)Cc1ccc(NC(=O)c2ccc(C(C)(C)C)cc2)cc1
-29%	O=S(=O)(c1ccc(Nc2ccc(-c3ccc4c(c3)OCCO4)nn2)cc1)N1CCCC1
-16%	CS(=O)(=O)c1ccc(Cl)c(NC(=O)c2cccc(Br)c2)c1
-12%	COc1cc(C(=O)N2CCN=C2c2ccccc2)cc(OC)c1OC
-1%	CC(Sc1nnc(-c2ccc(C(C)(C)C)cc2)n1C)C(N)=O (stereo not given)
-15%	O=C(NC1CCCC1)c1cnn2c(C(F)(F)F)cc(-c3ccc4c(c3)OCO4)nc12

Gathered by group: the entries above with two or more sulfur atoms.
HPGD block	compound
?	CC(C)CCNC(=O)CSc1nnc(-c2ccc(S(=O)(=O)N3CCCC3)cc2)n1C
-9%	CSc1nc2ccc(N3C(=O)C4CCCCC4C3=O)cc2s1 (stereo not given)

Compounds listed so far that contain a furan ring, fused or not:
HPGD block	compound
-14%	Cc1ccc(/C=N/NC(=O)c2cccc([N+](=O)[O-])c2)o1
?	Cc1cccc2nc(Cn3c(=O)n(CCC(=O)NCc4ccco4)c(=O)c4sccc43)cc(=O)n12
-16%	O=C(NCc1ccco1)c1cnc2ccccn2c1=O

Back to the main list with the 5 entries that preceded the break.
HPGD block	compound
-29%	O=S(=O)(c1ccc(Nc2ccc(-c3ccc4c(c3)OCCO4)nn2)cc1)N1CCCC1
-16%	CS(=O)(=O)c1ccc(Cl)c(NC(=O)c2cccc(Br)c2)c1
-12%	COc1cc(C(=O)N2CCN=C2c2ccccc2)cc(OC)c1OC
-1%	CC(Sc1nnc(-c2ccc(C(C)(C)C)cc2)n1C)C(N)=O (stereo not given)
-15%	O=C(NC1CCCC1)c1cnn2c(C(F)(F)F)cc(-c3ccc4c(c3)OCO4)nc12
-14%	CCOC(=O)Cc1nc2ccccc2[nH]1
-10%	CN(C)c1nc2n(c(=O)n1)C(C#N)CS2 (stereo not given)
-12%	Cc1ccc2[nH]c(=O)c(C(c3nnnn3C(C)(C)C)N(Cc3ccco3)CC3CCCO3)cc2c1 (stereo not given)
-25%	Cc1cccc(C)c1NC(=O)CSCC(=O)c1ccc(O)c(O)c1
-1%	O=[N+]([O-])c1ccc(C2CNC(c3ccccc3)O2)cc1 (stereo not given)
?	O=C(Cc1cccc2ccccc12)N/N=C/c1ccc(Sc2cccc3cccnc23)o1
-22%	COc1ccc(Cc2nc(-c3ccc(-n4cccc4)cc3)no2)cc1
-13%	CCOc1ccc(C(=O)NCC(=O)OCc2c(F)cccc2Cl)cc1OCC
-13%	COc1cccc(NC(=O)Cn2c(=O)n(-c3ccccc3)c(=O)c3oc4ccccc4c32)c1
-11%	COc1cccc(-c2ccc3ncnc(NC4CCNCC4)c3c2)c1
-7%	Cc1nc(=O)c(-c2ccccc2)c(C)n1CC1CCCO1 (stereo not given)
-11%	CS(=O)(=O)N1CCCC(C(=O)NCCCN2CCOCC2)C1 (stereo not given)
-4%	O=C(c1ccco1)N1CCN(S(=O)(=O)N2CCOCC2)CC1
-1%	COc1ccc2c(c1)CCc1c(-c3noc4c3CCc3cc(OC)ccc3-4)noc1-2
-15%	CC(=O)N1CCC2(CC1)C(C#N)=C(N)Oc1c2sc2nc(C)cc(C)c12
-8%	CCCC1CC(C(=O)N[C@H](C(C)O)C2OC(SC)[C@@H](O)C(O)C2O)N(C)C1 (stereo not given in full)
?	CCn1cc(C(=O)NCc2ccccn2)c(=O)c2cc(S(=O)(=O)N3CCCCC3)ccc21
-9%	CCN(CC)CCCC(C)NC(=O)c1ccc(-n2c(=O)c(=O)[nH]c3ccccc32)cc1 (stereo not given)
-15%	COc1ccc(C2N(c3ccccc3)C(=S)N3CCCN23)cc1 (stereo not given)
-27%	CCOC(=O)CC(=O)CSc1nc2ccccc2c(=O)n1-c1ccc(C(=O)NCCOC)cc1
-10%	N#CC(c1ccccn1)(c1ncc(C(F)(F)F)cc1Cl)N1CCOCC1 (stereo not given)
-23%	COCC(=O)N1CCC2(CCCN(c3cccc(-c4ccccc4)c3)C2)CC1
-4%	COC(=O)CNC(=O)COC(=O)C(Cc1ccccc1)NC(=O)c1ccco1 (stereo not given)
-7%	CCCCSC(=O)Nc1ccccc1
-8%	CCC(C)[C@H](NC(=O)NCc1cccs1)C(=O)O (stereo not given in full)
-9%	O=C1/C(=C/c2cccnc2)SC(=S)N1c1ccccc1
-5%	CCCSc1cc(N2CCOCC2)nc(-c2ccccc2Cl)n1
0%	Cc1cc(S(=O)(=O)N(Cc2ccc(F)cc2)CC2CCCO2)ccc1-n1cnnn1 (stereo not given)
3%	O=C(OCC(=O)N1CCCC1)c1ccco1
-3%	COc1ccccc1NS(=O)(=O)c1cccc(C(=O)N/N=C(\C)c2ccc(-n3ccnc3)cc2)c1
-18%	O=C(NCCc1ccccc1)C(c1cccs1)N(C(=O)CCl)c1ccc(Cl)cc1 (stereo not given)
-13%	O=C(N=Nc1c(O)[nH]c2ccc(Br)cc12)c1ccccc1-n1cccc1
-3%	COC(=O)C1=C(C)NC(=O)NC1c1cc(Cl)ccc1OC (stereo not given)
?	CCOC(=O)c1c(NC(=O)Cc2cccs2)sc(C)c1C
2%	Cc1cccc(NC(=O)CN(C)S(=O)(=O)c2cccs2)c1
-2%	COc1cccc(OCC(O)CN2CCN(CCO)CC2)c1 (stereo not given)
-14%	CO/C([O-])=N/c1c[n+](-c2ccc(C)cc2)no1
-14%	COc1ccc(CCNc2nc3ccccc3n3nnnc23)cc1OC
-17%	CCc1cc2cc3c(cc2nc1SCC(=O)Nc1nnc(C)s1)OCCO3
-15%	CCC(c1nnnn1Cc1ccco1)N(CCc1ccccc1)Cc1cc2ccc(OC)cc2[nH]c1=O (stereo not given)
-2%	COC(=O)CSc1nnc(CSc2nc(C)cc(C)n2)n1Cc1ccco1
-21%	O=c1c2[nH]c3ccccc3c2ncn1CCC1=CCCCC1
-5%	Cc1ccc(C(=O)NNC(=O)CCN2C(=O)C3CCCCC3C2=O)cc1 (stereo not given)
-26%	COc1cc2cc(CN(Cc3cccs3)C(=S)Nc3cccc(C)c3)c(=O)[nH]c2cc1OC
-13%	COC(=O)C1=C(C)NC(C)=C(C(=O)OC)C1c1ccc(N(C)C)cc1
-10%	CC1(C)CC(=O)C(C=NCCCN2CCOCC2)=C(O)C1
?	CCN1CCN(C(c2cc3cc4c(cc3[nH]c2=O)OCO4)c2nnnn2C(C)(C)CC)CC1 (stereo not given)
-8%	c1ccc(-n2ncc3c2ncn2c(C4CCCCC4)nnc32)cc1
-8%	O=C(/C=C/c1ccccc1)N1CCN(CC(O)COc2ccccc2)CC1 (stereo not given)
-19%	COc1cccc(/C=c2/s/c(=C(\C#N)C(=O)N3CCOCC3)n(-c3ccccc3)c2=O)c1
-19%	O=C1Nc2ccccc2C(O)(C(=O)NCc2ccc3c(c2)OCO3)N1c1ccccc1 (stereo not given)
-3%	Cc1ccc(C(=O)NCCc2nnc(SCC(=O)Nc3nc(-c4ccccc4)cs3)n2C)cc1
-28%	COc1ccc(CC(C#N)(CO)c2nc3ccccc3[nH]2)cc1 (stereo not given)
-11%	COc1cc(C(=O)NC2=NCCS2)cc(OC)c1OC
-17%	Cn1c(NC(=O)c2cccs2)cc(=O)n(C)c1=O
-8%	O=C(Nc1ccccc1)OCCNC(=O)c1ccccc1
-12%	Cc1ccc2nc(C(C)O)[nH]c2c1 (stereo not given)
-7%	COc1ccc(NC(=O)CCCC2CCCCC2)cc1S(=O)(=O)N1CCCCC1
-20%	Cc1cnc(NC(=O)COc2ccccc2)s1
-20%	CCOC(=O)/C(C#N)=C\C1=C(N2CCCC2)CC(C)(CC)OC1 (stereo not given)

Next entries follow:
HPGD block	compound
-9%	CCOC(=O)Cc1csc(Nc2ccc(Cl)cc2)n1
-13%	COc1ccc(CC(=O)n2nc(-c3ccccc3)nc2NCc2ccco2)cc1
-10%	O=C(c1ccco1)N1CCN(CCCCN2C(=O)c3ccccc3C2=O)CC1
-9%	C=CCn1c(SCc2c(C)noc2C)nnc1C1COc2ccccc2O1 (stereo not given)
-8%	Cc1cc2nc(C3CCCN(C(=O)NCc4ccccc4)C3)[nH]c2cc1C (stereo not given)
16µM*	Cc1ccc(C)c(C(=O)CSc2n[nH]c(C(C)C)n2)c1
-3%	Cn1c(=O)n(Cc2ccc(Cl)cc2)c2ccccc21
?	Cc1cc(C)c(NC(=O)c2cn3c4c(c(N5CCN(C)CC5)c(F)cc4c2=O)OCC3C)c(C)c1 (stereo not given)
-10%	COCC(=O)N(C)c1nnc(-c2cnccn2)s1
-4%	CCn1c(CC(=O)Nc2ccc(C)cc2)nnc1SCC(=O)N1CCN(c2ccccc2)CC1
-4%	Cn1cccc1/C=N/NC(=O)c1cccc(OC(F)(F)C(F)F)c1
-10%	Cn1c(=O)n(C)c2cc(NS(C)(=O)=O)ccc21
-6%	CNCc1ccccc1OCC(=O)Nc1ccccc1OC
-17%	Cc1cc(Cl)cc(Br)c1OCCCN1C(=O)NC(C)(C)C1=O
-12%	O=c1[nH]c(Cn2nnc(-c3ccccc3)n2)nc2scc(-c3ccccc3)c12
-4%	Cc1cc(C)nc(NS(=O)(=O)c2ccc(NC(=S)NC(=O)C(C)C)cc2)n1
-7%	CC(NCc1ccccc1Cl)C(=O)Nc1ccc(S(=O)(=O)N2CCCC2)cc1 (stereo not given)
-26%	CN1C2C=C3C(C#N)=C(N)C(C#N)(C#N)[C@@H](c4cccc(F)c4)[C@@H]3C1CC2 (stereo not given in full)
-7%	O=C1/C(=C/c2ccc(F)cc2)CCC1C1CCCC1 (stereo not given)
-13%	CCCCCCNC(=O)Cc1nc2nc(C)cc(C)n2n1
-22%	CC(C)CN(C(=O)CSc1nncs1)c1c(N)n(CC(C)C)c(=O)[nH]c1=O
-10%	O=C(NCCCn1ccnc1)/C(=C\c1cccs1)NC(=O)c1ccccc1
14µM*	O=C(Cc1ccccc1)Nc1ccccc1CO
-6%	CCOc1cc(NS(C)(=O)=O)c(OCC)cc1NC(=O)c1cccs1
-2%	CN1CCC(C2(O)c3ccccc3CSc3sccc32)CC1 (stereo not given)
-16%	O=C(Cn1c(CN2CCCCC2)nc2ccccc2c1=O)NCc1ccco1
-6%	Nc1c(C(=O)c2ccc(Br)cc2)oc2ccccc12
-19%	CC(C)(CNC(=O)c1sc2cc(F)ccc2c1Cl)N1CCOCC1
-10%	O=C(Cn1ccc([N+](=O)[O-])n1)NCc1ccco1
-10%	CCOC(=O)Cc1nnc2c(Nc3ccc(C)cc3)nc3nonc3n12
-5%	CCC(C)NC(=S)NNC(=O)c1ccc(C(C)(C)C)cc1 (stereo not given)
?	CC(C)NC(=O)COC(=O)c1cc(F)c(F)cc1Cl
-7%	CC(=O)OCC(=O)Nc1ccc(C(C)=O)cc1
-24%	CCOC(=O)C1CCCN(C/C(O)=C(\C#N)c2nc(-c3ccccc3)cs2)C1 (stereo not given)
?	Cc1ccc[n+](CC(=O)c2cc3ccccc3oc2=O)c1
-18%	COc1cc(-c2nnc(-c3cccnc3)o2)cc(OC)c1OC
0%	COc1ccc(NC(=O)CCS(=O)(=O)c2ccccc2)c(OC)c1

Shown comma-delimited: 2 of the compounds above.
SMILES,HPGD block
CC(=O)OCC(=O)Nc1ccc(C(C)=O)cc1,-7%
CCOC(=O)C1CCCN(C/C(O)=C(\C#N)c2nc(-c3ccccc3)cs2)C1 (stereo not given),-24%
